Bfl-1 A1 inh: inhibitors of the anti-apoptotic protein A1, read as caspase activation. MEF A1-2A-BIM cells, Caspase-Glo 3/7 luminescence, 3 h; percent of clofoctol response, vehicle zero. caspase activation, % (no concentration beside the values). 330,000 compounds, 0.066% hits. AID 2462;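 active = over half of replicate activation scores above 10%, or exactly half above 10 with the replicate mean above 10; inconclusive = replicate mean below 10 yet half the replicates above 10; inactive = over half of replicates below 10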;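 note: wells of about 30 µL received 50 nL stock; many hits fall short of the cut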
UCH37 inh: human UCH37 deubiquitinating enzyme inhibition; Q9Y5K5; purified proteasome/UCH37, Ub-AMC cleavage fluorescence; inhibition, % (test concentration not listed); 330,000 compounds, 0.33% hits; AID 588478;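 active = mean of two replicates above 20%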;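 note: 0% = compound-free wells with enzyme and 100% = wells lacking proteasome; stock transfer was 100 nL into about 20 µL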
Target sequence (Q9Y5K5 whole entry, looked up): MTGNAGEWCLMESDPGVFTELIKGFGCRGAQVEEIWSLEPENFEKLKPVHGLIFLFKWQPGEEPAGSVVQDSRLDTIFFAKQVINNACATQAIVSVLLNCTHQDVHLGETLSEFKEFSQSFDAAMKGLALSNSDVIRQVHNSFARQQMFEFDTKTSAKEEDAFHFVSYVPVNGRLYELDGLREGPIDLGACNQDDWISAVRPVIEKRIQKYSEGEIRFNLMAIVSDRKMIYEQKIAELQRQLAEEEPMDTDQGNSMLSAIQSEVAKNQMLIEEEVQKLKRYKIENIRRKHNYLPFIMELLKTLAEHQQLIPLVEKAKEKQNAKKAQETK
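Material: human UCH37 enzyme supplied as purified proteasome complex. Measure: % inhibition of Ub-AMC cleavage fluorescence. Medium: pH 7.4 Tris-HCl (50 mM) with ovalbumin, ATP-MgCl2, DTT. Times: 30 min preincubation with enzyme, 25 min cleavage at room temperature. Detection: AMC fluorescence intensity at 355/460 nm.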
LANA-H2A inh: blocks KSHV LANA binding to histone H2A/H2B; Q9QR71; cell-free LANA-H2A/H2B peptide, fluorescence polarization; inhibition, % (no concentration beside the values); 320,000 compounds, 0.6% hits; AID 2629; in the data active = inhibition mostly above about 10%, no sharp cut-off; inactive = mostly below about 6.7%;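 note: stock transfer was 7.5 nL into about 10 µL; 0% = median of vehicle wells and 100% = median of positive control wells; one replicate is shown; the record names a cut of 25% in any replicate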
HNF4A DNA FP: change in binding of human HNF4 alpha to DNA; P41235; HNF4a-FITC DNA binding, fluorescence polarization, 1 h; activity change, % at 10 µM; 360,000 compounds, 0.3% hits; AID 1224865; in the data active = activity change above about 30%, passing the limit was not always enough;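 note: controls were the assay level and a saturating level of protein; the project sought stronger binding though the title names inhibitors; some compounds called inactive have numbers as strong as hits; positive values seem to mean higher polarization but the record does not say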
E coli growth: inhibitors of Escherichia coli growth. OD600, 23 h; stronger effect = lower value. OD600 absorbance (concentration not given with the values). 330,000 compounds, 0.21% hits. AID 1053175;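 active = OD600 absorbance below the run mean of sample wells minus 3.6 SD, in any replicate, cut at about 0.56 in these data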;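 note: stock transfer was 300 nL into about 60 µL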
Vif A3G: HIV-1 Vif–A3G interaction blockers – biochemical, TR-FRET, GST-Vif 1-94, biotin-A3G peptide, dose response retest, primary screen (AID 1117319); TR-FRET GST-Vif / biotin-A3G peptide binding; higher % means a stronger effect; test concentration not given here; strong numbers were not always called active; inhibition, %, or IC50 in µM where a hit was titrated; 260,000 compounds, 0.57% hits;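 active = above the screen mean plus three standard deviations and confirmed in dose response; inconclusive = results disagree or hit not tested in dose response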;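 note: Vif residues 1-94 fused to GST binding biotinylated APOBEC3G peptide 110-148; 0% = full assay without inhibitor and 100% = GST in place of GST-Vif; retest series ran down from 100 µM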
B2AR ag: human beta-2 adrenergic receptor agonism by FAP; Am2.2-beta2AR cells, FAP receptor internalization, flow cytometry; reference of the scale not given here; response, % (concentration not given with the values); 340,000 compounds, 0.43% hits;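 active = response above a set limit, near 3 SD of response in nonfluorescent compounds, cut at about 42% in these data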;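 note: stock transfer was 100 nL into about 11 µL; a reference agonist was the positive control; negative values mostly stem from fluorescent compounds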
Target sequence (P07550 whole entry, looked up): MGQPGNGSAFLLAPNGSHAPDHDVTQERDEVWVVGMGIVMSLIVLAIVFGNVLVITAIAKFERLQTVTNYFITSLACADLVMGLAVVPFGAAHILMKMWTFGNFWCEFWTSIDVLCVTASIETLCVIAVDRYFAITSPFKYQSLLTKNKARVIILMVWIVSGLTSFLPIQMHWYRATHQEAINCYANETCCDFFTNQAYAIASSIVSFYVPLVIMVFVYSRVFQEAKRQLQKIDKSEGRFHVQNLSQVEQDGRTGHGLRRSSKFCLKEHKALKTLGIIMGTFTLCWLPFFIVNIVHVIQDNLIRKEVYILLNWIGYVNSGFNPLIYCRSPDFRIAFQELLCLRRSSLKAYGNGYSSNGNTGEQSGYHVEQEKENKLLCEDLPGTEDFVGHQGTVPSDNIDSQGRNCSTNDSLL
* marks the source's active call; other numbers are inactive results; ? = inconclusive; . = no result given; & = joins results of further samples. Outcome played no part in choosing rows (roughly 2.1% active in at least one column).

SMILES	Bfl-1 A1 inh	UCH37 inh	LANA-H2A inh	HNF4A DNA FP	E coli growth	Vif A3G	B2AR ag
O=c1[nH]cnc2[nH]ncc12	0.1	1.6	-3.7&4.0	0.6	0.68	.	-4
O=C(Oc1cc(=O)oc2c1c(=O)n1c3c(cccc23)CC1)c1ccccc1	0.7	-24	-2.4	-2.6	0.5	22%	1
Cc1cccc(Cc2nnc(CCC(=O)NCc3cnc4ccccn34)o2)c1	0.3	-1.8	-2.7	2.0	0.68	4%	-1
COc1ccc(CCNC(=O)CSc2nnc(CNC(=O)c3cc(OC)c(OC)c(OC)c3)o2)cc1OC	0.6	0.2	-0.1	-0.3	0.63	.	5
Cc1oc2ccc(O)cc2c1C(=O)c1ccc(Br)cc1	0.2	6.7	-1.3	1.2	0.69	.	-10
CCCCc1ccc(N=N/C(C(=O)Nc2cc(OC)c(NC(C)=O)cc2OC)=C(/C)O)cc1	0.3	7.2	-1.4	1.1	0.7	?	1
Cc1cccc(NC(=O)NNC(=O)c2cc3ccccc3cc2O)c1C	-0.1	.	-3.4	0.8	.	10%	3
CSc1nc2c(c(-c3ccccc3)c1C#N)CCC2	-0.4	-16	-1.4	2.3	0.67	-6%	-10
Cc1c(C(=O)N/N=C/c2c(O)ccc3ccccc23)nnn1-c1nonc1N	0.8	.	3.5	3.8	.	.	9
O=C1NC2(CCc3ccccc32)C(=O)N1CCOc1ccc(Cl)cc1 (stereo unspecified)	-0.3	1.9	6.7	1.3	0.68	-6%	-1
Cn1c(C2=C(O)CN(c3ccccc3)C2=N)nc2ccccc21	1.0	-1.0	-2.2	2.1	0.65	.	1
COc1cc(/C=C/C(=O)Nc2nc3ccc(S(=O)(=O)NC(C)C)cc3s2)cc(OC)c1OC	1.0	-46	0.1	4.5	0.71	0%	3
c1coc(-c2nnc(NC3=NCCC3)o2)c1	-6.2	3.4	1.8	0.1	0.71	5%	2
CC(C)[C@H](CN1CCC[C@H]1CN1C(N)=NC[C@@H]1Cc1ccccc1)N1C[C@@H](Cc2ccccc2)N(CCc2ccc(Cl)c(Cl)c2)C1=N	-0.6	1.1	-12	5.8	.	.	12
COc1ccc(N2CCN(S(=O)(=O)c3cn(C)cn3)CC2)cc1	0.5	1.0	-5.7	-0.2	0.68	.	-2
CN(C(=O)c1cc2c(s1)-c1ccccc1S(=O)(=O)C2)c1ccccc1	0.2	7.0	2.5	0.0	0.69	-4%	3
Cc1cc(-c2csc(NC(=O)c3ccccc3C(F)(F)F)n2)c(C)n1Cc1ccccc1	0.0	0.8	3.9	2.3	0.65	.	-3
CC(=O)c1ccc(NC(=O)N2CCCC(C(=O)c3ccc4c(c3)OCO4)C2)cc1 (stereo unspecified)	-1.2	3.3	0.1	0.0	0.71	?	2
CN(C)CCCN(C(=O)c1ccc(C(=O)c2ccccc2)cc1)c1nc2ccc(F)cc2s1	-0.7	1.6	1.8	0.5	0.71	3%	19
CCOC(=O)c1oc2ccccc2c1COC(=O)CNC(=O)c1cc(OC)c(OC)c(OC)c1	0.3	0.0	-0.1	1.8	0.59	3%	-8

Molecules shown so far containing an aryl thioether with sulfur outside any ring:
SMILES	Bfl-1 A1 inh	UCH37 inh	LANA-H2A inh	HNF4A DNA FP	E coli growth	Vif A3G	B2AR ag
COc1ccc(CCNC(=O)CSc2nnc(CNC(=O)c3cc(OC)c(OC)c(OC)c3)o2)cc1OC	0.6	0.2	-0.1	-0.3	0.63	.	5
CSc1nc2c(c(-c3ccccc3)c1C#N)CCC2	-0.4	-16	-1.4	2.3	0.67	-6%	-10

Other entries
SMILES	Bfl-1 A1 inh	UCH37 inh	LANA-H2A inh	HNF4A DNA FP	E coli growth	Vif A3G	B2AR ag
CC(=O)Nc1cccc(-c2nnc(-c3ccccc3)o2)c1	-3.2	1.7	-1.5	-2.4	0.65	0%	-14
N#C/C=C/N1CCN(Cc2ccc3c(c2)OCO3)CC1	0.5	4.7	-7.3	0.3	0.7	-2%	-10
Cc1ccccc1C(=O)NNC(=O)Nc1ccccc1	1.4	1.6	0.0	.	0.67	5%	.
O=C(COC(=O)CNS(=O)(=O)c1ccccc1)NC12CC3CC(CC(C3)C1)C2	-0.5	2.0	0.6	-3.2	0.71	.	1
O=C(NC1CCCc2c1cnn2-c1ccc(F)cc1F)c1ccccn1 (stereo unspecified)	0.3	2.5	0.3	1.5	0.71	21%	1
COc1ccc(-c2noc(C(=O)NCc3ccccc3Cl)n2)cc1OC	0.4	3.1	-6.4	-0.4	0.71	4%	-1
Cc1ccc(C(=O)NCc2nnc(SCC(=O)NC(C)c3ccccc3)n2C)cc1 (stereo unspecified)	-1.3	1.1	0.6	-2.0	0.66	-3%	3
COC(=O)C1=C(C)N(CCCC(=O)O)C(=O)NC1c1ccc(OC)cc1 (stereo unspecified)	1.4	4.7	3.2	1.0	0.67	.	-3
O=C(OC12CC3CC(CC(C3)C1)C2)c1ccc(NCc2cc(O)ccc2O)cc1	.	.	.	9.8	.	-7%	12
O=C(NNC(=O)c1ccc(NC(=O)C2CC2)cc1)c1ccc(F)cc1	0.8	0.7	1.8	0.2	0.63	.	-10
COc1ccc(C(=O)O)cc1S(=O)(=O)Nc1cccc(C(F)(F)F)c1	0.6	4.1	3.3	-0.7	0.71	-2%	-1
COc1ccc2cc(C(=O)N3CCc4ccccc43)[nH]c2c1	-0.9	-2.9	-5.4	-1.7	0.66	-4%	8
COc1ccc(C(=O)OCc2c(F)cccc2Cl)cc1S(=O)(=O)N1CCOCC1	.	4.1	.	-2.8	0.72	-9%	9
Cc1oc2c(c1C(=O)NCc1cccnc1)C(=O)c1ccccc1C2=O	-1.7	22*	2.1	.	0.64	-4%	.
Cc1ccc(OCCCCCCN2CCNCC2)c(Br)c1	1.1	2.3	-6.3	3.1	0.55	.	31
COc1cccc(CN(C)C(=O)c2ccc(Oc3ccccc3)cc2)c1OC	1.3	2.5	1.3	-1.5	0.7	-22%	-26
O=C(Nc1ncc2c(n1)-c1ccccc1OC2)c1ccc(Cl)cc1Cl	0.2	-101	4.4	-0.2	0.7	32%	3
O=C(NCc1cccnc1)C1CCN(S(=O)(=O)N2CCOCC2)CC1	-0.4	0.5	-2.5	-4.9	0.64	2%	11
O=[N+]([O-])c1ccccc1S(=O)(=O)Nc1cccc(-c2ccc(N3CCOCC3)nn2)c1	-1.2	2.1	.	0.2	0.69	5%	1
O=S(=O)(NCC(c1cccnc1)N1CCN(Cc2ccccc2)CC1)c1ccc(Cl)cc1 (stereo unspecified)	0.9	4.5	-1.2	0.9	0.71	-1%	-3
C=CCn1c(C(C)(C)C)nc2ccccc21	1.0	1.0	-2.4	-1.8	0.64	-7%	-6
OCC(O)C1OC(Nc2ccc(Cl)cc2)C(O)C1O (stereo unspecified)	0.0	3.2	2.0	-1.5	0.69	-4%	-54
CCCCN1C(=O)Cc2c1nc(N)c1c(N)nc(N(CCC)CCC)c(C#N)c21	-0.1	-54	1.5	5.1	0.72	17%	3
C=CCc1c(C)nn(CC(=O)O)c1-c1ccccc1	-0.1	1.0	11	-0.5	0.81	12%	-2
Cc1ccccc1NC(=S)N(Cc1ccccn1)Cc1ccccc1Cl	0.6	4.4	0.6	1.7	0.7	-4%	-4
CCc1ccccc1NC(=O)CSc1nnc(Cn2nnc3ccccc32)n1C	1.7	2.6	-3.0	0.2	0.72	5%	-1
O=C(Cc1ccccn1)c1ccccc1	1.6	2.6	-0.8	0.2	0.68	.	-3
CCOc1ccc(Cl)cc1S(=O)(=O)N1CCC(C(=O)NCc2ccco2)CC1	0.4	5.0	1.4	3.7	0.7	.	-5
COc1cccc(NC(=O)CN(C)C(=O)CC(NC(=O)c2ccccc2Cl)c2ccccc2)c1 (stereo unspecified)	0.0	1.8	-2.0	-3.5	0.68	-15%	-4
CCOc1cccc(C(=O)Nc2cc(-c3nn4c(C)nnc4s3)ccc2C)c1	0.6	2.3	-7.1	-0.3	0.78	-2%	3
COc1ccc2c(Cl)c(C(=O)NCc3ccco3)sc2c1	-0.8	3.7	-2.8	-1.6	0.72	-7%	-3
CC(C)Cn1nc(C(=O)NCc2ccccc2CN2CCCC2)c2ccccc2c1=O	1.0	1.0	-5.2	-0.6	0.69	7%	3
Cc1noc(NS(=O)(=O)c2ccc(N3Cc4ccccc4C3=O)cc2)c1C	-0.5	6.9	0.7	0.1	0.66	23%	-7
CCn1cc(S(=O)(=O)N2CCN(Cc3cccc(Cl)c3)CC2)cn1	0.6	0.9	0.6	2.0	0.67	5%	-1
O=C(Nc1cccc(O)c1)c1ccc(NC(=O)c2cccs2)cc1	1.0	0.7	-0.3	4.4	0.69	.	3
CCCCn1nc(C(=O)Nc2cc(C(F)(F)F)ccc2N2CCOCC2)ccc1=O	0.2	3.1	1.0	-0.2	0.71	-5%	-3
Cc1cccc(S(=O)(=O)Nc2cc(Cl)ccc2N2CCOCC2)c1	-0.9	4.0	4.4	0.2	0.67	5%	2
Cc1cccc(C)c1-n1c(C)cc(/C=N\NC(=O)CC(=O)NC2CCCCC2)c1C	-0.1	.	-4.2	0.7	.	.	3
CCOC(=O)C1C(=O)C(=O)N(C2CCCCC2)C1C(=O)OCC (stereo unspecified)	.	-0.4	.	4.6	0.66	-8%	-10
COc1ccc2cc(C3CC(c4ccco4)=NN3C(=O)CCC(=O)O)c(Cl)nc2c1 (stereo unspecified)	0.1	-13	0.2	-4.3	0.62	11%	11
COc1ccc(N2CCN(C(=O)CCCn3c(=O)[nH]c4cc(Cl)ccc4c3=O)CC2)cc1	0.7	-0.3	-1.0	1.7	0.7	-10%	-18
Cc1ncc(CN2CCCC(C(=O)Nc3ccc(-c4cccc(F)c4)cc3)C2)s1 (stereo unspecified)	1.9	-0.6	1.8	-0.9	0.67	.	51*
O=C(c1ccco1)N1CCN(C(=O)c2ccc(COc3ccc4c(c3)CCC4)o2)CC1	0.4	5.0	1.3	-3.0	0.69	4%	-5
O=C(O)CCCCCN1C(=O)/C(=C\c2cn(-c3ccccc3)nc2-c2cccs2)SC1=S	-0.4	3.9	-0.7	-10	0.69	10%	5
C=CCC(=O)OCCCCCCOc1ccc(C(=O)O)cc1	?	1.5	0.6	0.2	0.69	-2%	4
FC(F)(F)c1ccc(N=Cc2sc(N3CCOCC3)nc2-c2ccccc2)cc1	0.2	1.5	-2.8	4.8	0.7	12%	4
COC(=O)c1cccc(NC(=O)c2cc3sccc3n2C)c1	-0.4	2.4	4.5	2.3	0.65	6%	-1
Cc1ccc(C(=O)Nc2nnc(S(=O)(=O)Nc3ccccc3C)s2)cc1C	.	2.3	0.1	-3.1	0.76	.	2
O=C(NCc1ccccc1)c1ccc2c(=O)[nH]c3c(C(=O)NCC4CCCO4)sc(=S)n3c2c1 (stereo unspecified)	-0.4	14	0.4	-0.4	0.7	3%	0
Cc1nnc(SCC(=O)c2c(N)n(C)c(=O)n(C)c2=O)n1Cc1ccccc1	-0.1	2.0	4.3	3.0	0.67	4%	2
O=C(NC(=S)Nc1ccc(N2CCOCC2)cc1)c1cncc(Br)c1	1.1	3.5	2.4	2.2	0.7	?	-4
CC(C)CC(=O)c1c[nH]c(C(=O)NCCCn2ccnc2)c1	0.2	2.0	2.7	2.0	0.7	18%	-15
C=CCSc1nc(N)c(C(=O)Nc2ccccc2)cc1C#N	-0.4	-13	5.0	-3.8	0.71	-4%	-1
